FGF22 binding = shifts melting point of recombinant human FGF22. 1.5% of 340,000 active. recombinant FGF22 thermal shift, SYPRO orange fluorescence; percent of sucrose octasulfate shift, DMSO zero. Q9HCT0. calls only at 9.99 µM;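 active = melting point raised past a set limit in the mean and every replicate; three in four hits are not shown here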
Target sequence (Q9HCT0 whole entry, looked up): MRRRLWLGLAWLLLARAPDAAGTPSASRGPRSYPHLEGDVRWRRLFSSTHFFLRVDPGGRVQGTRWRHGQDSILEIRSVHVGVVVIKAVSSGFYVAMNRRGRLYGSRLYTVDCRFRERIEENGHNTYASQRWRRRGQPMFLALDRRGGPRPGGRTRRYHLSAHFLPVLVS
AF4-AF9 inh = MLL-AF4/AF9 protein interaction inhibition; 0.47% of 350,000 active; AlphaScreen, biotin-AF4 peptide binding to FLAG-AF9; AID 651704; inhibition, % at 10 µM;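 active = every replicate reaching a set inhibition limit, whatever the replicate mean, cut at about 25% in these data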;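 note: 0% = plate neutral control median and 100% = total signal loss; the record names both 10 and 1 µM as test concentration; the first replicate is given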
Target sequence (P42568 whole entry, looked up): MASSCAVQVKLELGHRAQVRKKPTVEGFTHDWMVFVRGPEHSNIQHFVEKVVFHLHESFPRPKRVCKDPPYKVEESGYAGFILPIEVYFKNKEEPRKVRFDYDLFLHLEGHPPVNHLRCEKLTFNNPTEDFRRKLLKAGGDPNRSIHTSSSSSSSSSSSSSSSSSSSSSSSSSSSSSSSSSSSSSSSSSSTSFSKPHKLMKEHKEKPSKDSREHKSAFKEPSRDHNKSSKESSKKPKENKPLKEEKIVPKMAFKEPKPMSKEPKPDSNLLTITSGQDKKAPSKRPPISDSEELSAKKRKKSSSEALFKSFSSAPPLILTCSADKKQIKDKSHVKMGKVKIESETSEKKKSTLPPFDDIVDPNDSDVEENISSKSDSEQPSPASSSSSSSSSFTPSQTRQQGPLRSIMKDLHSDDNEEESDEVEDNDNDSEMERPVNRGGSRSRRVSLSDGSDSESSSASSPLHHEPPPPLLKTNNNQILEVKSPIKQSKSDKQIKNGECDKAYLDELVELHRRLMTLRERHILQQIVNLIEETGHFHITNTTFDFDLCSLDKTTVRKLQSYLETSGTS
rRNA inh HTS = inhibits bacterial ribosomal RNA function over humanized ribosomes | E. coli WT GFP vs humanized-ribosome RFP mutants, fluorescence, 24 h; active compounds read low; DMSO median 0, no signal -100 | GFP signal change (wild-type ribosome), % (test concentration not listed) | 1.6% of 350,000 active;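 active = significant combined selectivity score with lowered wild-type GFP, culture density cut under 30%, mutant RFP and density less affected; inactive = any of these conditions unmet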; note: one replicate is shown; some compounds called inactive have numbers as strong as hits
rRNA inh HTS OD600 = recorded beside rRNA inh HTS, whose call it bears; OD600 change, %; measured here: OD600 growth;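 optical density of the mix in the first replicate; 0 = DMSO median and -100 = no signal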
rRNA inh HTS RFP = further read-out of rRNA inh HTS, marked with its call; RFP signal change, %; measured here: RFP humanized mutant strains;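 first replicate; 0 = DMSO median and -100 = no signal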
* marks the source's active call; other numbers are inactive results; i = inactive; + = active, no number; & = joins results of further samples.

SMILES | FGF22 binding | AF4-AF9 inh | rRNA inh HTS | rRNA inh HTS OD600 | rRNA inh HTS RFP
COc1ccc(CN(C)C[C@H]2OCCCC[C@H](C)Oc3ccc(NC(=O)CCCN(C)C)cc3C(=O)N([C@H](C)CO)C[C@@H]2C)cc1 | i | -0.4 | 4 | 8 | -3.4
Cc1noc(C)c1S(=O)(=O)N(C)C[C@H]1Oc2c(cccc2N(C)C)C(=O)N([C@@H](C)CO)C[C@H]1C | i | -1.2 | 8 | 8 | 0.2
CCCNC(=O)N(C)C[C@H]1Oc2ncc(C#CC3CC3)cc2C(=O)N([C@@H](C)CO)C[C@@H]1C | i | -0.7 | -3 | 4 | -4.9
CC1=C(C(=O)N2CCOCC2)CC(CC(=O)NC(c2ccccc2)c2ccccc2)C(=O)N1Cc1ccc(F)cc1 (centres undefined) | i | -0.8 | -6 | -12 | 7.5
CO[C@@H]1CN(C)C(=O)c2cc(NS(C)(=O)=O)ccc2OC[C@H](C)N(S(C)(=O)=O)C[C@H]1C | i | -3.2 | -1 | -1 | 0.6
C[C@@H]1CN([C@H](C)CO)S(=O)(=O)c2ccc(C#C[C@@H](C)O)cc2O[C@H]1CN(C)CC1CCCC1 | i | 4.1 | -2 | -14 | -0.9
O=C(NCc1cccnc1)c1cc(C2CCCCN2S(=O)(=O)Cc2ccccc2)on1 (centres undefined) | i | -1.8 | 5 | 0 | -0.7
O=S(=O)(Nc1ccc(C(O)(C(F)(F)F)C(F)(F)F)cc1)c1cccc2cccnc12 | i | -3.4 | -36 | -74 | -12
COc1ccc(CNC(=O)C[C@@H]2CC[C@@H](NC(=O)CN(C)C)[C@@H](CO)O2)cc1 | i | -0.7 | -2 | 3 | 0.0
COc1ccc(CNC(=O)C[C@@H]2CC[C@H](NS(=O)(=O)c3cccc(OC)c3)[C@H](CO)O2)cc1 | i | -0.6 | 0 | 0 | -3.0
C[C@@H]1CN([C@H](C)CO)C(=O)CCCn2nncc2CO[C@H]1CN(C)Cc1ccc(-c2ccccc2)cc1 | i | 0.3&5.4 | -6&-5 | -12&-11 | 1.1&5.2
C[C@@H]1CN([C@@H](C)CO)C(=O)c2cccc(NC(=O)CCCCCC(=O)Nc3ccccc3N)c2O[C@@H]1CN(C)S(C)(=O)=O | i | -0.1 | 10 | 17 | -1.1
C[C@@H]1CCCCO[C@@H](CN(C)Cc2ccncc2)[C@@H](C)CN([C@H](C)CO)C(=O)c2cc(NC(=O)CCCN(C)C)ccc2O1 | i | -24 | 6 | 5 | -1.5
C[C@@H]1CCCCO[C@@H](CN(C)S(=O)(=O)c2cn(C)cn2)[C@@H](C)CN([C@@H](C)CO)C(=O)c2cc(NC(=O)CCC(F)(F)F)ccc2O1 | i | -2.4 | 3 | 4 | -1.3
O=C(CC1CC1)Nc1ccc2c(c1)[C@@H]1C[C@@H](CC(=O)N3CCc4ccccc4C3)O[C@@H](CO)[C@@H]1O2 | i | -0.6 | -3 | -7 | 2.1
CN1CCN(C(=O)C[C@H]2C[C@H]3c4cc(NC(=O)c5ccc6c(c5)OCO6)ccc4O[C@H]3[C@@H](CO)O2)CC1 | i | -0.4 | -2 | 2 | 2.1
COC(=O)C[C@H]1C[C@@H]2c3cc(NC(=O)Nc4ccccc4)ccc3O[C@@H]2[C@@H](CO)O1 | i | -2.3&0.2 | -6&-2 | -2&2 | -0.2&0.7
CCC(=O)Nc1ccc2c(c1)C(=O)N(C)C[C@@H](OC)[C@@H](C)CN(C(=O)COC)[C@@H](C)CO2 | i | -0.2 | 2 | 2 | -0.5
O=C(C[C@H]1C[C@@H]2c3cc(NC(=O)c4cccnc4)ccc3O[C@@H]2[C@@H](CO)O1)NC1CCCCC1 | i | -3.7 | -3 | 0 | 1.5
COc1ccc(NC(=O)N2CCCCN3[C@H](CO)[C@H](c4ccc(-c5ccccc5F)cc4)[C@H]3C2)cc1 | i | -1.5 | -54 | -82 | -14
C[C@H]1CN([C@@H](C)CO)C(=O)c2cc(NC(=O)Cc3ccccc3)ccc2O[C@H]1CN(C)Cc1ccc(Oc2ccccc2)cc1 | i | 2.3 | -3 | -28 | 32
C/C=C/c1cnc2c(c1)C(=O)N([C@H](C)CO)C[C@@H](C)[C@@H](CN(C)S(=O)(=O)c1ccc(C)cc1)O2 | i | -6.0 | 0 | 1 | 0.3
Cc1ccc(OCc2nc3ccccc3n2C(C)C(=O)Nc2c(C)cccc2C)cc1 (centres undefined) | i | -1.3 | -6 | -50 | 8.0
C[C@@H]1CN([C@@H](C)CO)S(=O)(=O)c2ccc(C#Cc3ccc(F)cc3)cc2O[C@H]1CN(C)S(=O)(=O)c1ccc(F)cc1 | i | -6.1 | 7 | 2 | -3.0
C[C@H](CO)N1C[C@H](C)[C@H](CN(C)C(=O)Nc2cccc3ccccc23)Oc2c(NC(=O)Nc3ccc4c(c3)OCO4)cccc2C1=O | i | 5.9 | -5 | -15 | 1.3
CCCN(C)C[C@@H]1Oc2ncc(-c3cccc(C#N)c3)cc2C(=O)N([C@@H](C)CO)C[C@@H]1C | i | -1.3 | 0 | 7 | -4.6
C[C@H]1CN([C@@H](C)CO)C(=O)Cc2cc(NC(=O)Nc3cccc4ccccc34)ccc2O[C@@H]1CN(C)C(=O)Nc1ccccc1 | i | 2.2 | 0 | -3 | 1.5
O=C(Nc1ccc(C(F)(F)F)cc1)N[C@@H]1CC[C@H](CC(=O)N2CCCCC2)O[C@@H]1CO | i | -2.5 | -6 | -8 | -0.9
c1ccc(N2CCN(c3cccc(-c4cc5ccccc5s4)n3)CC2)nc1 | i | -1.4 | 8 | 16 | 2.5
C[C@H](CO)N1C[C@H](C)[C@H](CN(C)Cc2ccc(Cl)c(Cl)c2)OCc2cn(nn2)CCCC1=O | i | 4.2 | -5 | 4 | 0.8

Single records, from the list above.
O=S(=O)(Nc1ccc(C(O)(C(F)(F)F)C(F)(F)F)cc1)c1cccc2cccnc12 is entered as FGF22 binding = i; AF4-AF9 inh = -3.4; rRNA inh HTS = -36; rRNA inh HTS OD600 = -74; rRNA inh HTS RFP = -12
CCCN(C)C[C@@H]1Oc2ncc(-c3cccc(C#N)c3)cc2C(=O)N([C@@H](C)CO)C[C@@H]1C is entered as FGF22 binding = i; AF4-AF9 inh = -1.3; rRNA inh HTS = 0; rRNA inh HTS OD600 = 7; rRNA inh HTS RFP = -4.6
Cc1ccc(OCc2nc3ccccc3n2C(C)C(=O)Nc2c(C)cccc2C)cc1 (centres undefined) is entered as FGF22 binding = i; AF4-AF9 inh = -1.3; rRNA inh HTS = -6; rRNA inh HTS OD600 = -50; rRNA inh HTS RFP = 8.0

New compounds follow.
SMILES | FGF22 binding | AF4-AF9 inh | rRNA inh HTS | rRNA inh HTS OD600 | rRNA inh HTS RFP
O=C(C[C@@H]1CC[C@H]2[C@@H](COC[C@H](O)CN2C(=O)c2ccncc2)O1)NC1CCC1 | i | 2.4 | 5 | 3 | -10
O=C(Nc1ccc2c(c1)[C@H]1C[C@@H](CC(=O)N3CCOCC3)O[C@@H](CO)[C@H]1O2)C1CCOCC1 | i | -11 | 2&3 | 9&8 | 6.9&-1.0
C[C@H](CO)N1C[C@H](C)[C@H](CN(C)C)Oc2c(NC(=O)NC3CCCCC3)cccc2C1=O | i | -2.4 | 2 | 0 | -0.7
O=C(C[C@H]1C=C[C@@H](NS(=O)(=O)c2ccc(F)cc2)[C@@H](CO)O1)NC1CCC1 | i | -1.1 | 1 | 7 | -0.6
C[C@H](NC(=O)[C@@H]1[C@@H](CO)[C@@H]2Cn3c(cccc3=O)[C@@H]2N1CCC(F)(F)F)c1ccccc1 | i | -0.3 | 2 | 10 | 0.9
CO[C@H]1CN(C)C(=O)c2ccc(NC(=O)C3CC3)cc2OC[C@H](C)N(CCc2ccccc2)C[C@@H]1C | i | 2.4 | -5 | -11 | 4.7
CCCCCC1C(=O)N2C=C(c3ccccc3)c3ccccc3N2C1=O (centres undefined) | i | 2.0 | -11 | -19 | 0.3
C[C@@H]1CN([C@H](C)CO)C(=O)c2cc(NC(=O)Nc3ccc(F)cc3)ccc2O[C@@H](C)CCCCO[C@@H]1CN(C)S(=O)(=O)c1ccccc1 | i | 1.3 | 2 | 4 | -0.3
O=C(c1ccncc1)N1CC[C@@H]2[C@H]1c1cc(-c3ccccc3)ccc1N[C@@H]2CO | i | 1.2 | -1 | 8 | 3.6
CO[C@H]1CC[C@@H]2CCOc3ccc(C#N)cc3C(=O)N(C)C[C@H](OC)[C@@H](C)C(=O)N(C)C[C@H]1O2 | i | 0.8 | 4 | 4 | -2.1
COc1ccc(NC(=O)c2ccccc2SCc2ccccc2)cc1 | i | -11 | -8 | -11 | -8.4
C[C@@H]1CN([C@H](C)CO)C(=O)c2cccc(NS(=O)(=O)c3cn(C)cn3)c2O[C@@H]1CN(C)C(=O)NC1CCCCC1 | i | -0.4 | 3 | 17 | -2.0
CC(=O)N(C)C[C@@H]1Oc2cc(C#Cc3ccc(F)cc3)ccc2S(=O)(=O)N([C@@H](C)CO)C[C@@H]1C | i | 3.6 | -4 | -29 | 8.1
C[C@@H]1CCCCO[C@H](CN(C)S(=O)(=O)c2ccccc2)[C@H](C)CN([C@@H](C)CO)C(=O)c2cc(NS(=O)(=O)c3ccc(F)cc3)ccc2O1 | i | -0.8 | -3 | 0 | 0.7
O=C(Cc1cccnc1)N1CC(=O)N2[C@@H](CO)[C@@H](c3ccc(C#CC4CCCCC4)cc3)[C@@H]2C1 | i | 1.0 | 2 | -12 | -0.1
COc1cccc(CN(C)C[C@@H]2OCc3cnnn3CCCC(=O)N([C@@H](C)CO)C[C@H]2C)c1 | i | -0.2&-1.2&4.4 | 15&3 | 7&4 | 0.1&-1.2
CN(C)C(=O)Nc1ccc(Cl)c(Cl)c1 | i | -1.7 | 0 | -2 | 1.0
COC(=O)C[C@@H]1CC[C@@H]2[C@H](COc3ccc(NC(=O)c4cccc(F)c4)cc3C(=O)N2C)O1 | i | -0.8 | 7 | 7 | -0.4
CCC(=O)N1[C@@H]2CN(S(=O)(=O)c3ccccc3C)c3ccccc3[C@@H]2[C@@H]1CO | i | -2.7 | 1 | 2 | -1.5
CC(C)C#Cc1cnc2c(c1)C(=O)N([C@@H](C)CO)C[C@H](C)[C@H](CN(C)S(=O)(=O)c1cn(C)cn1)O2 | i | -1.4 | 3 | 4 | -1.1
C[C@H](CO)N1C[C@H](C)[C@H](CN(C)C(=O)Nc2ccc(F)cc2)Oc2ncc(C3=CCCCC3)cc2C1=O | i | 1.1 | -5 | -3 | 2.9
C[C@H]1CN([C@@H](C)CO)C(=O)c2cccc(NC(=O)c3nc4ccccc4s3)c2O[C@@H]1CN(C)Cc1ccc(-c2ccccc2)cc1 | i | 2.7 | 2 | 5 | -2.0
Cc1noc(NS(=O)(=O)c2ccc(NC(=O)c3cc(S(=O)(=O)N(C)c4ccccc4)ccc3Cl)cc2)c1C | i | -3.1 | -35 | -40 | -10
COc1ccccc1-c1cccc([C@@H]2C[C@H]3[C@H](CON3C)CN2C(=O)CCc2ccccc2)c1 | i | 6.3 | -3 | -13 | 1.1
CC(C)c1ccc(NC(=O)C2(C)Cc3c(-c4ccc5c(c4)OCO5)ccnc3O2)cc1 (centres undefined) | i | 1.6 | -4 | -2 | -1.2
C[C@H](CO)N1C[C@H](C)[C@H](CN(C)S(=O)(=O)c2ccccc2)Oc2ccc(NC(=O)CCCCCC(=O)Nc3ccccc3N)cc2C1=O | i | -1.9 | 0 | 7 | 0.3
O=C(C[C@@H]1CC[C@@H](NC(=O)CCN2CCCCC2)[C@@H](CO)O1)Nc1ccc(-c2ccccc2)cc1 | i | 3.0 | 2 | 1 | 3.7
CCCNC(=O)C[C@H]1CC[C@@H]2[C@H](COc3ccc(NS(=O)(=O)CC)cc3C(=O)N2C)O1 | i | -1.3 | 8 | 0 | 0.2
CC1(C(=O)NS(=O)(=O)Cc2cccc(Cl)c2)CCN1C(=O)C1(c2ccc(Cl)cc2)CCC1 (centres undefined) | + | -0.6 | -20 | -34 | -8.2
Cc1noc(C)c1NC(=O)Nc1ccc2c(c1)CC(=O)N([C@H](C)CO)C[C@H](C)[C@@H](CN(C)Cc1ccncc1)O2 | i | 0.2 | 4 | -1 | -1.8
CC(C)Oc1cc(F)ccc1-c1cc(C(=O)NC2CCCCC2)[nH]n1 | i | 1.1 | -40 | -67 | -4.5
CCCCCCn1cc(CN2CC(N3CCN(C)CC3)CS2(=O)=O)nn1 (centres undefined) | i | 0.1 | 11 | 5 | 0.4
COc1ccc(NC(=O)N(C)C[C@H]2OCc3cn(nn3)CCCC(=O)N([C@H](C)CO)C[C@@H]2C)cc1 | i | -4.3&-2.9 | 0&13 | 1&17 | 0.0&0.8
COc1cccc(S(=O)(=O)Nc2ccc3c(c2)C(=O)N(C)C[C@@H](OC)[C@@H](C)CN(Cc2ccccc2F)[C@H](C)CO3)c1 | i | -13 | -5 | 2 | 3.3

Compound activity from PubChem.

A portion of the library. The share of hits here may be higher or lower than overall.
